# 2A StopGo – High Throughput Screening for Foot and Mouth Disease Virus Antivirals | human cells with a luciferase reporter of 2A StopGo recoding; control for the full effect not named in the record | Potency, µM (series often up to 57.9 µM), for inactives: at the highest dose signal change, negative = less light | hit rate 1.2% among 410,000; active = well fitted falling curve with a large enough effect; inconclusive = small, poorly fitted or top-dose-only effect; inactive = no such curve, though single readings can be large or run the other way; tested in HEK293T cells; note: % is set by controls: 0 for no effect and ±100 for the full control effect; nearly all actives have a fitted effect of over 45% in size; luciferase light after 4 h
# LASV entry inh – qHTS for Inhibitors of binding or entry into cells for Lassa Virus; hit rate 1.2% among 300,000; Potency, µM (top dose mostly 37.9 µM), without a hit: top-dose activity change, negative = inhibition, usual class: inhibitors; Lassa virus pseudotype entry inhibition, cell reporter; control for the full effect not named in the record; active means well fitted inhibition curve with a large enough effect; inconclusive means small, poorly fitted or top-dose-only effect, or effect the other way; inactive means flat fitted curve, though single readings scatter; tested in HEK293 cells; note: % is set by controls: 0 for no effect and ±100 for the full control effect; nearly all actives have a fitted effect of over 50% in size; luciferase read-out
# NS1 inh – qHTS Assay for Inhibitors of Influenza NS1 Protein Function. S. cerevisiae slowed by influenza A NS1, growth recovery by OD600. Potency, µM (titrated, usually from 46.1 µM), for the others: top-dose activity, positive = more growth. hit rate 0.4% among 270,000; note: actives are rising curves; nearly all actives have a fitted effect of over 50% in size
#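 A cell-based growth assay was used: compounds that relieve NS1-induced slow growth of budding yeast raise OD600. Assay medium was yeast nitrogen base with ammonium sulphate and -URA supplement, pH 6.0, with 2% galactose.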
# Cruzain inh noDet – qHTS Assay for Promiscuous and Specific Inhibitors of Cruzain (without detergent); purified cruzain, Z-FR-AMC fluorescence, no detergent; Potency, µM, inactives show max response, negative = inhibition, hits mostly inhibitors; hit rate 2.3% among 200,000; active = well fitted curve in the direction sought with a large enough effect; inconclusive = small, poorly fitted or top-dose-only effect, or another doubt; inactive = no such curve, though single readings can be large; an effect the other way counts as inactive or inconclusive;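 note: plate controls were enzyme without inhibitor for no effect and buffer without enzyme for full effect; nearly all actives have a fitted effect of over 40% in size; top concentration of the series not given in the record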
# Target sequence (P25779 123-467 limits assumed): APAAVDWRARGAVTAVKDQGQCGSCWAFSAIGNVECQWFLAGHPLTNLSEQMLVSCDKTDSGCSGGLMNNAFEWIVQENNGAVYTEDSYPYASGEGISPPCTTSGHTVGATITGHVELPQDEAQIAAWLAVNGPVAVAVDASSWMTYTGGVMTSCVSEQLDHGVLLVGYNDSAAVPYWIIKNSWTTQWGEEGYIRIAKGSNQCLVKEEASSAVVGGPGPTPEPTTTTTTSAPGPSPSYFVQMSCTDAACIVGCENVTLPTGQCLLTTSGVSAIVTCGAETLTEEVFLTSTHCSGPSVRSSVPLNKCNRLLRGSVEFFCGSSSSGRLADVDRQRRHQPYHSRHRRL
#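 Purified cruzain at 1.5 nM, pre-incubated 15 min with compound at room temperature in 100 mM sodium acetate pH 5.5, 5 mM DTT, 0.00005% Triton X-100. Reaction started with 2 uM Z-FR-AMC; AMC fluorescence increase over 60 s gives rate.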
# RE007 growth inh – qHTS Assay for Inhibitors of the HIV-1 protein Vpr. S. pombe RE007 Vpr strain, BacTiter-Glo ATP luminescence, 24 h; control for the full effect not named in the record. Potency, µM (top dose mostly 92.2 µM), for inactives: top-dose activity change, negative = less growth. hit rate 0.21% among 360,000. AID 651644, 2012; active = well fitted falling curve with a large enough effect; inconclusive = small, poorly fitted or top-dose-only effect; inactive = no such curve, though single readings can be large or run the other way;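 note: % is set by controls: 0 for no effect and ±100 for the full control effect; nearly all actives have a fitted effect of over 50% in size; the assay follows cell death caused by Vpr and the record does not say whether a fall means rescue or toxicity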
#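 Fission yeast RE007 carrying one integrated HIV-1 vpr copy, seeded at OD 0.01 in PMG+AL medium with 23 nL pinned compound. Grown 24 h at 30 degrees; viability read by BacTiter-Glo luminescence after 5 min.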
# Cruzain inh Det – qHTS Assay for Promiscuous and Specific Inhibitors of Cruzain (with detergent); purified cruzain, Z-FR-AMC fluorescence, 0.01% Triton; Potency, µM, without a hit: max response, negative = inhibition, hits mostly inhibitors; hit rate 0.43% among 200,000; active = well fitted curve in the direction sought with a large enough effect; inconclusive = small, poorly fitted or top-dose-only effect, or another doubt; inactive = no such curve, though single readings can be large; an effect the other way counts as inactive or inconclusive;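 note: plate controls were neutral wells for no effect and buffer without enzyme for full effect; nearly all actives have a fitted effect of over 40% in size; top concentration of the series not given in the record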
#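 Cysteine protease activity tested under reducing, mildly acidic conditions (100 mM sodium acetate pH 5.5, 5 mM DTT) plus 0.01% Triton X-100. Cruzain 1.5 nM; substrate Z-FR-AMC 2 uM; 15 min compound preincubation at room temperature.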
# Marburg entry inh – qHTS for inhibitors of binding or entry into cells for Marburg Virus. Marburg virus pseudotyped entry inhibition, cell reporter; control for the full effect not named in the record; about a third of the inactives were read at about 46 µM. Potency, µM (highest dose often 37.8 µM), inactives show top-dose activity change, negative = inhibition, hits mostly inhibitors. hit rate 1.8% among 300,000. AID 540276, 2011; active = well fitted inhibition curve with a large enough effect; inconclusive = small, poorly fitted or top-dose-only effect, or effect the other way; inactive = flat fitted curve, though single readings scatter; tested in HEK293 cells; about a fifth of its hits are not listed in these tables; note: % is set by controls: 0 for no effect and ±100 for the full control effect; luciferase read-out
# SARS PLpro yeast – qHTS of Yeast-based Assay for SARS-CoV PLP; S. cerevisiae expressing SARS-CoV PLpro, growth rescue; control for the full effect not named in the record; Potency, µM (highest dose often 32.9 µM), for inactives: top-dose activity, positive = growth rescue; hit rate 0.19% among 330,000; AID 485353, 2010; note: 0% is about no effect; nearly all actives have a fitted effect of over 55% in size; growth read by luminescence after 48 h
# * hit, by the source's call; ? = inconclusive; · = not tested or not shown; & = joins results of further samples; [ ] = another dose, or the depositor's remark. Unless noted, calls come from the whole dose curve; as a rule, active means well fitted rising curve with a large enough effect; inconclusive means small, poorly fitted or top-dose-only effect; inactive means no such curve, though single readings can be large or run the other way. Potency is the fitted concentration of half-maximal effect. The order is random; 4.6% or so of the library scored in one or more.
Compound,SARS PLpro yeast,RE007 growth inh,LASV entry inh,Cruzain inh noDet,NS1 inh,2A StopGo,Marburg entry inh,Cruzain inh Det
COc1ccc(CN2CCN(Cc3ccc(Br)cc3)CC2)c(OC)c1OC,1%,-16%,·,·,7%,?,·,·
COc1ccccc1CN1CCCC(CN(CCN(C)C)C(=O)C2CCCC2)C1 (stereo not given),0%,2%,?,·,6%,0%,?,·
O=C(Nc1ccc2nc(SCCOc3ccccc3)sc2c1)c1ccco1,·,·,6%[46.1 µM],-30%,·,-16%,7%[46.1 µM],-21%
Cc1coc2cc3oc(=O)c(CCC(=O)O)c(C)c3cc12,1%,?,-1%,·,?,0%,1%[46.1 µM],·
COc1ccc(OC)c(NC(=O)c2cccc(N3C(=O)C4C5CCC(C5)C4C3=O)c2)c1 (stereo not given),1%,0%,?,·,-13%,20µM*,?,·
Cc1cccc2c(=O)c(-c3ccc4c(c3)OCO4)c(NC(=O)c3ccco3)oc12,1%,-2%,-28%[46.1 µM],·,-7%,-3%,?,·
Cc1cc(C)nc(NC(=NCCc2c[nH]c3ccccc23)NC(=O)Nc2ccccc2)n1,-13%,4%,?,?,23%,0%,15µM*,-2.6%
O=C(CSc1nc2ccc(Nc3nc(N4CCOCC4)nc(N4CCOCC4)n3)cc2s1)N1CCOCC1,0%,-1%,?,?,9%,-26%,?,-7.4%
COC(=O)CNC(c1ccccc1Cl)c1cc(Br)ccc1NS(=O)(=O)c1ccc(C)cc1 (stereo not given),-20%,0%,?,?,4%,-3%,?,-2.9%
CC(C)OP(=O)(O)NC(=O)c1ccccc1,-3%,-2%,6%,·,·,0%,-6%[46.1 µM],·
COc1ccc(Cl)cc1N(CC(=O)Nc1ccccc1C(=O)NCc1ccco1)S(C)(=O)=O,-2%,12%,-8%,?,3%,13%,3%&-19%,-5.4%
COC(=O)c1[nH]c2ccc(C)cc2c1NC(=O)CN1CCN(c2ccccc2)CC1,-9%,-11%,?,13%,-9%,?,?,-4.0%
COc1cccc(-c2nc(CS(=O)CC(=O)NCc3ccccc3Cl)c(C)o2)c1 (stereo not given),9%,4%,·,?,-7%,14%,·,-18%
CC(C)[C@H](NC(=O)c1ccccc1)C(=O)OCC(=O)/C=C1/N(C)c2ccccc2C1(C)C,-23%,-1%,-21%,-13%,-32%,?,-41%,-13%
CCOc1ccc(NC(=O)N2CCN(Cc3cc(=O)n4nc(-c5ccc(OC)cc5)sc4n3)CC2)cc1,·,·,16%[46.1 µM],-11%,·,-2%,·,3.4%
O=C(NCCO)c1cc(-c2cc(C(=O)NCCO)c3ccccc3n2)nc2ccccc12,-3%,15%,1%,·,5%,-2%,2%,·
Clc1ccc(Cc2nn3c(Cn4nnc5ccccc54)nnc3s2)cc1,1%,1%,-3%,-11%,-39%,?,-19%,-5.9%
CC(=O)N1CCSc2ccc(S(=O)(=O)Nc3ccc(C)cc3)cc21,5%,-3%,-6%[46.1 µM],·,3%,15%,-20%[46.1 µM],·
O=C1NC(=S)N/C1=C/c1ccc2c(c1)OCO2,1%,-1%,·,·,2%,0%,·,·
Cc1sc2ncn(/N=C/c3ccco3)c(=O)c2c1C,-1%,4%,?,·,-3%,29%,?,·
Cc1ccc(NC(=O)C2C3/C=C\CCCCC32)cc1 (stereo not given),15%,7%,-14%,-1%,14%,32%[activator],25%,3.6%
CCN(C(=O)C1CCN(S(=O)(=O)c2c(C)noc2/C=C/c2ccc(C)cc2)CC1)c1cccc(C)c1,·,·,-27%[46.1 µM],-8%,·,-22%,·,0.4%
CCOc1ccc(N2CC(C(=O)NC3CCCCCC3)CC2=O)cc1 (stereo not given),-2%,32%,0%,·,-10%,-23%,1%[46.1 µM],·
CCn1cc(C(=O)O)c(=O)c2cc(S(=O)(=O)N3CCCCCC3)ccc21,-2%,-9%,?,·,-15%,16%,15%[46.1 µM],·
Cc1ccccc1OCCCCCn1ccnc1,7%,-7%,-2%,10%,-18%,-26%,-14%,3.5%
CCCCc1nc2cc(C(=O)N(C)CCc3cn[nH]c3)ccc2o1,7%,15%,·,·,6%,27%,·,·
CC1CCC2(CC1)SCC(=O)N2c1ccc(F)cc1 (stereo not given),-4%,5%,-6%,·,3%,-3%,-4%[46.1 µM],·
COc1ccc(NC(=O)N2CCCC2C(=O)NCc2ccc(F)cc2)cc1 (stereo not given),24%,-3%,-14%,-5%,8%,22%,9%,2.3%
COc1cc2[nH]c(=S)n(Cc3ccc(C)o3)c(=O)c2cc1OC,5%,1%,-20%,3%,9%,-6%,-8%,-1.4%
COc1cccc(NS(=O)(=O)c2ccc3c(c2)N(C(C)=O)CCO3)c1,-2%,7%,·,·,2%,12%,·,·
CCCCCc1ccc(-c2ccc(/C=C/C(=O)O)cc2)nc1,2%,-15%,?,?,-33%,?,?,?
Cc1c(Cl)cccc1NC(=S)Nn1cnnc1,-1%,3%,6%,·,·,-11%,-17%,·
CC1=C(C(=O)OCCC#N)C(c2cc3c(cc2Br)OCO3)NC(=O)N1 (stereo not given),3%,-11%,·,·,12%,-7%,·,·
O=c1oc2ccccc2c(Nc2ccc3ccccc3c2)c1[N+](=O)[O-],-23%,-18%,-14%,-9%,-69%,10%,-15%,-1.3%
Cc1ccc(-n2ncc3c2CCCC3NC(=O)CCC2=NNC(=O)CC2)cc1C (stereo not given),0%,9%,-10%,·,-4%,-11%,-14%,·
Cc1cc(C)n2c(SCC(=O)Nc3ccc(F)cc3F)nnc2n1,5%,-20%,-5%,·,-2%,-6%,?,·
CCOc1ccc(/C=N/NC(=O)C(O)c2ccccc2)c(O)c1 (stereo not given),-2%,-4%,?,·,0%,65%[activator],?,·
Fc1ccc(CSc2nnc(-c3ccccn3)o2)cc1,-7%,-16%,·,·,-13%,47%[activator],·,·
Cc1cc(C)cc(NC(=O)CSc2oc(-c3cccs3)nc2S(=O)(=O)c2ccccc2)c1,·,·,?,-8%,·,0%,-20%[46.1 µM],1.5%
S=C(Nc1ccc(Cl)c(Cl)c1)N1CCN(c2ccccn2)CC1,0%,-24%,?,·,2%,45%[activator],2%,·
O=c1[nH]c(SCc2c(Cl)cccc2Cl)nc2ccccc12,1%,10%,-19%,·,5%,10%,-17%[46.1 µM],·
CCn1nnnc1SCC(=O)NC1Cc2ccccc2C1,0%,1%,·,·,2%,16%,·,·
Cc1cccc(C(=O)NC2CC(C)(C)NC(C)(C)C2)c1,-4%,10%,24%,5%,0%,-23%,17%,2.3%
C/C(=N\NC(=S)Nc1cccc(C)c1)c1cc2ccccc2o1,0%,4%,·,·,7%,3%,?,·
O=S(=O)(c1cccc(C(F)(F)F)c1)N1CCN(c2cnccn2)CC1,2%,5%,1%[46.1 µM],·,·,-22%,-14%[46.1 µM],·
Cc1nn(-c2ccccc2)c(C)c1/C=N/NC(=O)c1cc(-c2cccs2)[nH]n1,11%,12%,?,?,-43%,?,?,-7.4%
Cc1cc(NC(=O)c2ccc(S(=O)(=O)N3CCOCC3)cc2)nc2c1c(=O)oc1ccccc12,-1%,·,·,4%,-3%,·,·,1.2%
COc1cc2c(cc1NC(=O)C(C)Sc1ccc(C)cc1)oc1ccccc12 (stereo not given),-5%,-6%,-3%,-22%,1%,·,-28%,0.7%
O=C(Cn1ncc2ccccc21)N1CCc2ccccc21,7%,24%,·,-3%,?,15%,·,0.6%
CCOC(=O)N1CCC(NC(=O)c2oc3c(c2C)-c2[nH]ncc2CC3)CC1,2%,-12%,8%,0%,16%,-22%,9%,4.4%
O=C(Nc1ccc(C(=O)O)cc1)/C(=C\c1ccc(F)cc1)NC(=O)c1ccco1,-3%,10%,·,·,-3%,14%,10%[46.1 µM],·
CC(=O)c1ccc(S(=O)(=O)N2CCC3(CC2)OCCO3)cc1,1%,-3%,·,·,5%,-21%,·,·
O=C(CN1C(=O)c2ccc([N+](=O)[O-])cc2C1=O)NCCC1=CCCCC1,3%,3%,11%,·,·,-9%,5%,·
O=C(NC(=S)NC12CC3CC(CC(C3)C1)C2)c1ccc(F)cc1,4%,-18%,?,·,·,21%,9%,·
CCC(=O)c1ccc(OCC(=O)N(CC)CC2COc3ccccc3O2)cc1 (stereo not given),-1%,6%,5%,·,·,-12%,-5%,·
O=C(CCn1c(=S)[nH]c2ccccc2c1=O)NCCSCc1ccccc1,2%,9%,·,·,0%,-2%,?,·

# Next part.
Compound,SARS PLpro yeast,RE007 growth inh,LASV entry inh,Cruzain inh noDet,NS1 inh,2A StopGo,Marburg entry inh,Cruzain inh Det
CN(C)c1ccc(NC(=O)CCCCCn2nnc3ccccc3c2=O)cc1,1%,11%,·,·,3%,0%,·,·
CC(Sc1cccc[n+]1[O-])C(=O)Nc1cc(Cl)c(Cl)cc1Cl (stereo not given),-3%,2%,?,·,·,-3%,14%,·
Cc1cn(C)c(CC(=O)Nc2cccc(C#N)c2)c1C(=O)O,·,·,2%[46.1 µM],-8%,·,-8%,·,0.8%
CCC1CCCCN1S(=O)(=O)c1cc2c3c(c1)CC(=O)N3CCC2 (stereo not given),·,·,-2%[46.1 µM],-3%,·,22%,·,-2.1%
CC(CSc1nnnn1-c1ccccc1)Cn1c(N2CCN(C)CC2)nc2c1c(=O)[nH]c(=O)n2C (stereo not given),-1%,5%,?,·,·,5%,-18%[46.1 µM],·
CCn1c(SCc2nc3ccccc3c(=O)[nH]2)nnc1C(C)NC(=O)c1ccccc1 (stereo not given),-1%,-6%,-10%[46.1 µM],·,·,0%,7%[46.1 µM],·

# Screens as filed in PubChem.
